# Assay outcomes deposited in PubChem BioAssay by several laboratories.
# CBX7 AlphaScr: CBX7 chromodomain binding inhibitors, primary screen, biochemical, AlphaScreen. AlphaScreen His6-CBX7 / biotin-H3K27me3 peptide binding; stronger effect = lower value. Chromobox protein homolog 7 (Homo sapiens), O95931. 66,000 tested, 1.1% active. normalised signal (fraction of DMSO) (test concentration not listed); in the data active means normalised signal below about 0.5;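 further: 100 nL library stock added to about 20 µL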
# Target sequence (O95931 whole entry, looked up): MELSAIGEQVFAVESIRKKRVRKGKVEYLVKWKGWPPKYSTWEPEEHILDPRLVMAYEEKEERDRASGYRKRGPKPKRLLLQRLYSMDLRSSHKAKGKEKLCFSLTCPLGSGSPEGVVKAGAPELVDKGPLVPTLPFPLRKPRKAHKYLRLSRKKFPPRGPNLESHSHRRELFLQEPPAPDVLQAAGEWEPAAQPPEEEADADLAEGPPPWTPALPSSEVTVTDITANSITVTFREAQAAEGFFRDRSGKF
# CBX7 AlphaScr z-score: recorded beside CBX7 AlphaScr, whose call it bears; z-score; measured here: z-score of CBX7 signal; some inactives read as strong as hits; reference of the scale not given here;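 same signal on another scale; lower means less binding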
# An asterisk follows results filed as active; & = joins results of further samples.
SMILES,CBX7 AlphaScr,CBX7 AlphaScr z-score
CCOC(=O)c1ccc(NC(=O)CC2C(=O)N(c3ccccc3)C(=O)N2Cc2ccccn2)cc1 (stereo not drawn),0.993,-0.264
O=C(NCc1ccccc1)C1C2C=CC3(CN(Cc4cccs4)C(=O)C13)O2 (stereo not drawn),0.973,-1.26
N#Cc1nc(-c2ccc(Cl)cc2)oc1NCCc1ccccc1,1,0.00578
Cc1ccc(Nc2cc(C(=O)NCc3ccccc3)c3ccccc3n2)c(C)c1,0.988,-0.324
COc1ccc(-n2nc(C(=O)NCc3ccc(F)cc3)c3ccccc3c2=O)cc1,1.06,1.22
CCOC(=O)c1[nH]c2c(c1-c1ccc(OC)cc1)C(=O)CC(c1ccc(OC)c(OC)c1)C2 (stereo not drawn),0.82,-2.32
Cc1ccc(C)c(-n2c(Cc3cc(=O)[nH]c(=O)[nH]3)nnc2SCC(=O)N2CCC(C)CC2)c1,1.04,0.372
CC(=O)Nc1ccccc1-c1nc2ccc(C(=O)N3CC(C)CC(C)C3)cc2[nH]c1=O (stereo not drawn),0.931,-1.33
O=c1cc[nH]c2cc(N3CCCCCC3)c(F)cc12,0.957,-1.05
O=C(CSc1nccn1-c1ccc(F)cc1)Nc1ccc(Cl)cc1,0.732,-0.355
O=C(Cn1ccc2ccccc2c1=O)NCC(=O)N1CCC(Cc2ccccc2)CC1,0.84,-1.59
O=c1c(-c2cc(Br)ccc2NCc2ccccc2)nc2ccccc2n1Cc1ccccc1,0.368*,-9.12*
CC1CCCC(NC(=O)CCn2nc(-c3ccc(Cl)cc3)ccc2=O)C1C (stereo not drawn),0.879,-0.246
CCOC(=O)Cc1csc(NC(=O)CCCOc2ccc(Cl)cc2)n1,1.01,0.0885
CCCCCc1ccc(-c2ccc(C(=O)Nc3nc4ccc(OC)cc4s3)cc2)nc1,1.06,0.955
COc1ccc(OCC(=O)Nc2cc(-c3nc4ccccc4o3)ccc2C)cc1,1.05,0.115
O=C(CSc1nc(-c2ccccc2)c(-c2ccccc2)o1)Nc1nccs1,1.14,0.99
COc1ccc(Br)cc1C1Nc2ccc3ncccc3c2C2=C1C(=O)CC(C)(C)C2 (stereo not drawn),0.93,-0.841
CCN(CC)c1ccc2cc(-c3nnc(-c4cccc(Cl)c4)o3)c(=O)oc2c1,1.09,0.922
CCCCN1CCN(c2nc(-c3ccccc3)c3cc(C)ccc3n2)CC1,1.88,11.1
COCC(C)NC(=O)c1cc(-c2cccc(OC)c2)on1 (stereo not drawn),0.973,-0.592
Cc1ccc(CCNC(=O)c2ccc(CNS(=O)(=O)c3ccc(F)cc3)cc2)cc1,1.02,0.263
Cc1cc(C)c(NC(=O)CC2Oc3ccccc3NC2=O)c(C)c1 (stereo not drawn),1.38,2.23
O=C(NCc1ccc(F)cc1)C1CC(=O)N(C2CCCCC2)C1 (stereo not drawn),1.03,0.705
O=C(CN1N=C(c2ccc(Cl)cc2)CCC1=O)N1CCC2(CC1)OCCO2,1.09,1.42

# Overlap with the part before: 4 compounds; new compounds follow.
SMILES,CBX7 AlphaScr,CBX7 AlphaScr z-score
Cc1ccc(CCNC(=O)c2ccc(CNS(=O)(=O)c3ccc(F)cc3)cc2)cc1,1.02,0.263
Cc1cc(C)c(NC(=O)CC2Oc3ccccc3NC2=O)c(C)c1 (stereo not drawn),1.38,2.23
O=C(NCc1ccc(F)cc1)C1CC(=O)N(C2CCCCC2)C1 (stereo not drawn),1.03,0.705
O=C(CN1N=C(c2ccc(Cl)cc2)CCC1=O)N1CCC2(CC1)OCCO2,1.09,1.42
Cc1ccc2nc(NC(=O)CSc3nccn3-c3ccccc3)sc2c1,0.862,-5.16
CC12c3ccccc3C(C)(c3ccccc31)C1C(=O)N(c3ccc(C(=O)O)cc3)C(=O)C12 (stereo not drawn),1.05,1.25
Cc1ccc2nc(NS(=O)(=O)c3ccc(Cl)cc3)c(Nc3cccc(F)c3)nc2c1,0.766,-2.24
Cn1cc(CCC(=O)NCc2ccc(F)cc2)c2ccccc21,1.03,1.29
Cc1nc2cc(-c3ccccc3)nn2c(C)c1CCC(=O)NCCCN1CCCC1=O,0.974,-0.798
O=C(Nc1nc(SCc2ccccc2Cl)ns1)c1ncn[nH]1,0.0529*,-11.2*
CCOc1ccc(C(=O)Nc2ccc(NC(=O)c3ccccc3)cc2)cc1Br,1.15,1.6
O=C(O)c1ccc(Br)c(N2C(=O)C3CC=CCC3C2=O)c1 (stereo not drawn),1.03,0.766
Cc1nc(-n2cnc3ccccc32)c2c3c(sc2n1)CCC3,0.984,-0.136
COc1ccc(OC)c(CNc2sc3c(c2C(=O)Nc2ccccc2OC)CCC3)c1,0.917,-0.894
CCC(C(=O)Nc1c2c(nn1-c1cccc(Cl)c1)CS(=O)(=O)C2)c1ccccc1 (stereo not drawn),0.991,-0.0616
Cc1c(C(=O)Nc2ccc(Oc3ccccc3)cc2)sc2ncn(Cc3cccc(F)c3)c(=O)c12,1.07,0.502
Cn1c2ccccc2c2c(C(=O)N3CCN(c4ccccn4)CC3)cn(C3CCCC3)c(=O)c21,0.893,-0.107
COc1cccc(-c2nc(CS(=O)(=O)CC(=O)NCc3ccc(Cl)cc3)c(C)o2)c1,1.08,2.2
COc1ccc(-c2cc3ccccc3n2CC(O)CN2CCN(CCO)CC2)cc1 (stereo not drawn),0.994,-0.138
O=C1CN(C(=O)CCCc2ccccc2)C(c2ccc(F)cc2)c2cc(F)ccc2N1 (stereo not drawn),0.925,-1.89
CC(C(=O)NCCN1CCCC1)n1ncc2ccccc21 (stereo not drawn),1.1,1.96
CC1(C)CC(=O)C2=C(C1)N(c1ccccc1C(F)(F)F)C(=O)CC2c1cccs1 (stereo not drawn),1.11,1.01
O=C(CN1C(=O)CCSc2ccccc21)NCc1cccs1,1.01,0.62
CC1CCCCN1CCCNC(=O)Cn1nc(-c2ccc(Cl)cc2)ccc1=O (stereo not drawn),0.999,-0.0279
O=C(Cn1ccc2ccccc2c1=O)Nc1cnc2ccccc2c1,1.08,2.11
O=C(NCCC1=CCCCC1)C1CCN(S(=O)(=O)c2cccc3cccnc23)CC1,0.986,-0.175
COCc1nc2ccccc2n1Cc1ccc(Cl)cc1,0.981,-0.682
Cc1cnn(-c2nc(-c3ccco3)cc(C(F)(F)F)n2)c1,1.01,0.284
Cc1ccc(-c2noc(CNc3ccccc3)n2)cc1,1.03,0.316
# (list continues)
SMILES,CBX7 AlphaScr,CBX7 AlphaScr z-score
O=C(CSc1nccn1-c1ccc(F)cc1)Nc1nc2ccccc2s1,0.914,-0.114
COc1ccc2[nH]c(C)c(CCNS(=O)(=O)c3ccc(Cl)c(OC)c3)c2c1,0.845,-0.316
COc1ccc(-c2nc(Nc3ccc(Oc4ccccc4)cc3)c3ccccc3n2)cc1OC,0.989,-0.13
COc1ccc(N2CCN(C(=O)c3cn(C4CCCC4)c(=O)c4c3c3ccccc3n4C)CC2)cc1,0.771,-6.52
O=S(=O)(c1ccc(-c2csc(-c3cccnc3)n2)cc1)N1CCCCCC1,0.953,-0.511
Cc1nc(N2CCN(c3ccccc3)CC2)c2c3c(sc2n1)CCC3,0.994,-0.279
CCCCOC(=O)c1ccc2c(c1)C(=O)N(c1cccc(N)c1)C2=O,0.914,-2.46
O=C1CC(N2CCN(Cc3ccc4c(c3)OCO4)CC2)C(=O)N1CC(c1ccccc1)c1ccccc1 (stereo not drawn),1.27,2
COc1ccc(-c2nc3ccccc3o2)cc1NC(=O)COc1ccc(C(C)(C)C)cc1,1.05,0.052
CCCCNC(=O)CCc1c(C)nc2cc(-c3ccccc3)nn2c1C,1,0.115
COc1ccc(-n2nc3c(c2NC(=O)C2(c4ccc(Cl)cc4)CCCC2)CSC3)cc1,1.04,0.635
Cc1ccc(NC(=O)c2sccc2-n2cccc2)cc1,0.99,-0.515
CCN(C(=O)CCc1nc(-c2ccccc2F)no1)c1cc(C)ccc1C,0.986,-0.31
CCCCOc1ccc(N2C(=O)CC(N3CCN(C)CC3)C2=O)cc1 (stereo not drawn),0.939,-1.42
O=C(c1n[nH]c(=O)c2ccccc12)N1CCC(Cc2ccccc2)CC1,0.879,-3.16
CCOc1ccc(-c2cc(C(=O)NCC3CCCO3)c3ccccc3n2)cc1 (stereo not drawn),1.01,0.184
COc1ccccc1-n1nc(C(=O)Nc2ccc(Oc3ccccc3)cc2)c2ccccc2c1=O,0.782,-4.73
Cc1c(Cl)cccc1Nc1nc(-c2cccs2)cs1,0.838,-2.09
Cc1cc2c(cc1C)NC(CC(=O)Nc1ccccc1F)C(=O)N2 (stereo not drawn),1.14,1.63
CCOC(=O)c1ccc(NC(=O)CSc2nnc(CNC(=O)c3ccccc3F)o2)cc1,1.04,1.04
Cc1ccccc1-c1nc(Cn2c(SCc3cccc(F)c3)nc3ccncc32)c(C)o1,0.88,-3.6
Cc1ccccc1C(=O)Nc1sc2c(c1C(=O)N1CCCC1)CCCCC2,1.06,0.671
CCOc1ccc(CNC(=O)C(C)N2C(=O)COc3ccc(C)cc32)cc1 (stereo not drawn),0.421*,-10.5*
Cc1ccc(S(=O)(=O)Nc2ccccc2C(=O)Nc2nc3ccc(Cl)cc3s2)cc1,0.797,-3.41
Cn1c(/C=C/c2c[nH]c3ccccc23)nc2ccccc2c1=O,1,0.0623

# Four entries picked at random from the list so far:
SMILES,CBX7 AlphaScr,CBX7 AlphaScr z-score
Cc1ccccc1-c1nc(Cn2c(SCc3cccc(F)c3)nc3ccncc32)c(C)o1,0.88,-3.6
Cc1ccccc1C(=O)Nc1sc2c(c1C(=O)N1CCCC1)CCCCC2,1.06,0.671
CCCCOc1ccc(N2C(=O)CC(N3CCN(C)CC3)C2=O)cc1 (stereo not drawn),0.939,-1.42
COc1ccc(N2CCN(C(=O)c3cn(C4CCCC4)c(=O)c4c3c3ccccc3n4C)CC2)cc1,0.771,-6.52

# (list continues)
SMILES,CBX7 AlphaScr,CBX7 AlphaScr z-score
CCCN(C(=O)c1cc2c(s1)-c1ccccc1OC2)c1cccc(C)c1,1.21,10.3
CCc1ccc(-n2c(CCC(=O)O)ccc2-c2ccc(F)cc2)cc1,0.975,-0.758
CCOc1ccc(NS(=O)(=O)c2cc(OC)ccc2OC)cc1,0.863,-2.3
CCOc1ccc(N2C(=O)CC(NCCc3cccc(OC)c3)C2=O)cc1 (stereo not drawn),0.93,-1.88
O=C(NCc1ccccc1)c1nnc(Cc2ccc(Cl)cc2)o1,1.03,1.39
Cc1cc2nc(-c3cccc(NC(=O)c4cccc(F)c4)c3)oc2cc1C,1.01,0.497
O=C(c1cc(-c2ccco2)on1)N1CCN(c2ccc(F)cc2)CC1,1.05,1.32
Cc1ccc(CNC(=O)c2cnn(-c3ccccc3)c2C2CCN(C(=O)OC(C)(C)C)CC2)cc1,1.01,0.213
COc1ccc(C2C(=O)N(C3CCC(C)CC3)CC(=O)N2CCC2=CCCCC2)cc1OC (stereo not drawn),0.781,-0.613
CCN(C(=O)Cc1c(C(=O)O)[nH]c2ccccc12)c1ccccc1,1.02,0.437
CCCCOc1cccc(C(=O)Nc2ccc(Cl)c(-c3nc4ncccc4o3)c2)c1,0.892&0.93,-1.71&-1.17
CC(NC(=O)CN1C(=O)c2ccccc2S1(=O)=O)c1ccccc1 (stereo not drawn),0.991,-0.453
COc1ccc(-c2cc(C(=O)N3CCN(C/C=C/c4ccccc4)CC3)c3ccccc3n2)cc1OC,0.945,-1.61
CC(C)c1ccc(NC(=O)C2(NS(=O)(=O)c3cccc4cccnc34)CCCCC2)cc1,0.841,-1.89
Cc1ccc(NC(=O)C2CCN(C(=O)c3cnn(-c4ccccc4)c3-n3cccc3)CC2)cc1C,0.847,-0.352
O=C(C1CCCN1S(=O)(=O)c1cccc2cccnc12)N1CCN(c2ccccc2)CC1 (stereo not drawn),0.956,-1.48
O=C(CSc1ncnc2sc(-c3ccccc3)cc12)Nc1ccccc1F,1.05,0.0589
Cc1onc(-c2ccccc2Cl)c1C(=O)Nc1cccc(C(F)(F)F)c1,1.07,1.11
COc1cc(OC)cc(C(=O)Nc2c3c(nn2-c2cccc(C)c2)CSC3)c1,0.938,-1.54
COc1cccc(/C=C/c2ccc3ccccc3n2)c1O,1.07,0.827
O=C(CN(c1ccc(Cl)cc1)S(=O)(=O)c1ccccc1)NCCSc1ccccn1,1.02,0.685
CCOc1ccc(-c2csc(NC(=O)COc3ccc(C)cc3C(C)(C)C)n2)cc1,1.02,0.474
Cc1noc(C)c1C(=O)Nc1nnc(CC2CCCC2)s1,0.985,-0.491
COC(=O)Nc1ccc2c(c1)Nc1ccccc1CC2,0.898,-3.1
Cc1ccc(NS(=O)(=O)c2cc(Br)cc3c2N(C(=O)C2CC2)CC3)cc1F,1.03,1.4

# As a short view, 2 of the compounds above.
SMILES,CBX7 AlphaScr,CBX7 AlphaScr z-score
COc1ccc(C2C(=O)N(C3CCC(C)CC3)CC(=O)N2CCC2=CCCCC2)cc1OC (stereo not drawn),0.781,-0.613
CCN(C(=O)Cc1c(C(=O)O)[nH]c2ccccc12)c1ccccc1,1.02,0.437

# The listing continues.
SMILES,CBX7 AlphaScr,CBX7 AlphaScr z-score
CN(CC(=O)NCc1ccc(Cl)cc1)S(=O)(=O)c1cccc2cccnc12,0.994,-0.139
CCC(C)Sc1oc(-c2ccccc2)nc1S(=O)(=O)c1ccc(F)cc1 (stereo not drawn),1.18,7.29
CC1CCCCN1S(=O)(=O)c1ccc(C(=O)Nc2ccccc2-c2nc3ccccc3s2)cc1 (stereo not drawn),1.26,0.307
COc1ccc(NC(=O)c2cc3n(n2)C(C(F)(F)F)CC(c2ccc4c(c2)OCO4)N3)cc1OC (stereo not drawn),0.834,-0.165
CCC(=O)NCc1nc2ccccc2n1Cc1ccccc1F,0.917,-0.958
O=C(Cn1ncc2c1-c1ccccc1OC2)NCc1ccccn1,0.831,-2.12
CCCNC(=O)c1ccc2c(c1)N(Cc1cc(C)ccc1C)C(=O)CS2,1.08,1.63
COc1ccc(C2CC(=O)c3cnc(NCCc4ccccc4)nc3C2)cc1 (stereo not drawn),1.03,0.95
NS(=O)(=O)c1ccc(NC(=O)Cn2nc(Cc3ccncc3)c3ccccc3c2=O)cc1,1.11,1.12

# Not all compounds are listed. The share of hits here may be higher or lower than overall.
